Source: PubChem BioAssay
AF4-AF9 inh: inhibitors of human MLL-AF4/AF9 interaction. AlphaScreen, biotin-AF4 peptide binding to FLAG-AF9. inhibition, % at 10 µM. 350,000 compounds, 0.47% hits. AID 651704;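 active = every replicate reaching a set inhibition limit, whatever the replicate mean, cut at about 25% in these data; inconclusive = mean inhibition reaches that limit but some replicates miss it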;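 note: 0% = plate neutral control median and 100% = total signal loss; the record names both 10 and 1 µM as test concentration; the first replicate is given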
Target sequence (P42568 whole entry, looked up): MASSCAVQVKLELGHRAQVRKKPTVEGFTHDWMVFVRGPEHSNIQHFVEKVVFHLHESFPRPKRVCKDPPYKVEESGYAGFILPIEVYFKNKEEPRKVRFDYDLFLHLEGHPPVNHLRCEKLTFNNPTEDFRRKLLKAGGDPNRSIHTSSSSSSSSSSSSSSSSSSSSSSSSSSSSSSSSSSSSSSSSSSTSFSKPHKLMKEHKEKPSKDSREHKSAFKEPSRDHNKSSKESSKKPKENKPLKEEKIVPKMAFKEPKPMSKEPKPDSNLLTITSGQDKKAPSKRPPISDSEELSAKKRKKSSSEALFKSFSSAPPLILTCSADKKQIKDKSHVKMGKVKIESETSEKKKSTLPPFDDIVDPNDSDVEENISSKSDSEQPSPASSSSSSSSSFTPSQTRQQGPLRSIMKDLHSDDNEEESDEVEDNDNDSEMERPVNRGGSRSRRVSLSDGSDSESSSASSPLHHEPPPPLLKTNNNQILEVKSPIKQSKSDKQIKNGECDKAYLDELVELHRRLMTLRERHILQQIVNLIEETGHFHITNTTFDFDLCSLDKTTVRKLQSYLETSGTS
T cruzi repl: blocks replication of Trypanosoma cruzi; inhibition, % (concentration not given with the values); T. cruzi beta-gal in NIH3T3, luminescence, 90 h; 300,000 compounds, 1.4% hits; AID 1885;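 active = mean inhibition across valid replicates above about 55%, limit read from the data; inconclusive = mean below that limit but half or more replicates reach it; inactive = mean below it, under half of replicates reach it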;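 note: signal also drops with host cell toxicity which is not excluded here; 0% = plate median of DMSO wells and 100% = zero luminescence signal; higher percent means less beta-gal luminescence so fewer parasites; stock transfer was 50 nL into about 50 µL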
Bfl-1 A1 inh: inhibitors of the anti-apoptotic protein A1, read as caspase activation; caspase activation, % (concentration not given with the values); 330,000 compounds, 0.066% hits; AID 2462; MEF A1-2A-BIM cells, Caspase-Glo 3/7 luminescence, 3 h; percent of clofoctol response, vehicle zero;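 active = over half of replicate activation scores above 10%, or exactly half above 10 with the replicate mean above 10; inconclusive = replicate mean below 10 yet half the replicates above 10; inactive = over half of replicates below 10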;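 note: wells of about 30 µL received 50 nL stock; many hits fall short of the cut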
Ecoli growth: E. coli growth inhibition. Escherichia coli growth, OD600, 23 h; stronger effect = lower value. OD600 absorbance (test concentration not listed). 330,000 compounds, 0.21% hits;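 active = OD600 absorbance below the run mean of sample wells minus 3.6 SD, in any replicate, cut at about 0.56 in these data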;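 note: stock transfer was 300 nL into about 60 µL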
Beta cell apopt: beta cell apoptosis inhibition; INS-1E cytokine-induced death, ATP luminescence, 48 h; percent of positive-control rescue, neutral wells zero; protection from apoptosis, % (no concentration beside the values); 300,000 compounds, 0.8% hits; AID 435005;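 active = all replicates at 75% or more, or half of them and the mean; inconclusive = half reach 75% but not the mean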;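 note: 0% = cytokine-treated negative control wells and 100% = positive control rescue; higher means more ATP so stronger rescue from cytokine killing; wells of about 40 µL received 100 nL stock; the first replicate is given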
UCH37 DUB inh: blocks the human deubiquitinase UCH37. Q9Y5K5. purified proteasome/UCH37, Ub-AMC cleavage fluorescence. inhibition, % (test concentration not listed). 330,000 compounds, 0.33% hits. AID 588478;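 active = mean of two replicates above 20%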;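 note: 0% = compound-free wells with enzyme and 100% = wells lacking proteasome; stock transfer was 100 nL into about 20 µL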
Target sequence (Q9Y5K5 whole entry, looked up): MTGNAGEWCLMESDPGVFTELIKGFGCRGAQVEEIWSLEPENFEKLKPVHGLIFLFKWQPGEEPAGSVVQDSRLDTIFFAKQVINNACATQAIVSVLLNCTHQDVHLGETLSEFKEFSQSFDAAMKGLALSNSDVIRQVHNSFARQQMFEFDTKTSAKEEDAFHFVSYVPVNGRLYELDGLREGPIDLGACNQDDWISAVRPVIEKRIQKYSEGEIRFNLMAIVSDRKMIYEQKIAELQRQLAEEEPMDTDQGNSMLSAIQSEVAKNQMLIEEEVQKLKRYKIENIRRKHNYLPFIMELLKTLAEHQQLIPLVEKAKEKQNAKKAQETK
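assay system = human UCH37 enzyme supplied as purified proteasome complex | amount = proteasome at 0.15 nM in the dispensed enzyme solution | schedule = 30 min compound-proteasome preincubation then 25 min substrate reaction, room temperature | measured by = fluorescence, ex 355 nm, em 460 nm | benchmarks = no-proteasome wells (full inhibition) and compound-free wells (no inhibition)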
FGF22 binding: binders of recombinant human FGF22 by thermal shift. 340,000 compounds, 1.5% hits. Q9HCT0. SYPRO orange fluorescence; percent of sucrose octasulfate shift, DMSO zero. calls only at 9.99 µM;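 active = melting point raised past a set limit in the mean and every replicate; inconclusive = no clear call; three in four hits are not shown here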
Target sequence (Q9HCT0 whole entry, looked up): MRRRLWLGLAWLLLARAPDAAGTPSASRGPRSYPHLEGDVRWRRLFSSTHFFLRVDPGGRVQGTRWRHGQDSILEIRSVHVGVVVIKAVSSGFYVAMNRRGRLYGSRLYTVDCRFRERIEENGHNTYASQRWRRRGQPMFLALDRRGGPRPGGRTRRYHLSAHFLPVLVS
rRNA inh HTS: selective bacterial rRNA inhibition in E. coli; E. coli WT GFP vs humanized-ribosome RFP mutants, fluorescence, 24 h; stronger effect = lower value; DMSO median 0, no signal -100; GFP signal change (wild-type ribosome), % (concentration not given with the values); 350,000 compounds, 1.6% hits;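 active = significant combined selectivity score with lowered wild-type GFP, culture density cut under 30%, mutant RFP and density less affected; inactive = any of these conditions unmet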; note: one replicate is shown; some compounds called inactive have numbers as strong as hits
rRNA inh HTS OD600: second read-out of rRNA inh HTS, no call of its own (marks repeat the call); OD600 change, %; measured here: OD600 growth;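 optical density of the mix in the first replicate; 0 = DMSO median and -100 = no signal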
rRNA inh HTS RFP: second read-out of rRNA inh HTS, no call of its own (marks repeat the call); RFP signal change, %; measured here: RFP humanized mutant strains;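 first replicate; 0 = DMSO median and -100 = no signal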
Active calls of the source: *; i = inactive; ? = inconclusive; / = no result given.

SMILES | AF4-AF9 inh | T cruzi repl | Bfl-1 A1 inh | Ecoli growth | Beta cell apopt | UCH37 DUB inh | FGF22 binding | rRNA inh HTS | rRNA inh HTS OD600 | rRNA inh HTS RFP
CCn1c(SCC(=O)NCCc2ccc(OC)c(OC)c2)nc2c1c(=O)n(C)c(=O)n2C | / | 4 | 0.4 | 0.66 | -4 | 3.0 | / | / | / | /
CCOC(=O)c1[nH]c(C)c(C(=O)NCc2ccc(OC)cc2)c1C | 3.2 | -4 | -0.3 | 0.69 | -7 | 5.8 | i | -5 | 0 | -1.5
O=C(Cn1nc([N+](=O)[O-])nc1Br)NC(c1ccccc1)c1ccccc1 | / | 36 | 0.0 | 0.71 | -7 | 0.7 | / | / | / | /
Brc1cc2c(cc1Cn1c(-c3cncs3)nc3ccccc31)OCO2 | / | 28 | 0.0 | 0.76 | -1 | -1.3 | / | / | / | /
CC1CCCCN1C(=O)CSc1nc2c(c(=O)n(C)c(=O)n2C)n1C (centres undefined) | 19 | 10 | -0.1 | 0.66 | -4 | 1.6 | i | 4 | 6 | -1.8
COc1nccnc1NS(=O)(=O)c1ccc(NCc2ccccc2O)cc1 | 9.6 | -4 | 0.8 | 0.67 | -1 | 4.5 | i | -5 | -17 | 2.0
O=C(CCN1CCOCC1)N1CCCC(Nc2cccc(F)c2)C1 (centres undefined) | -1.7 | -7 | 0.1 | 0.71 | -1 | 2.0 | i | 11 | 7 | 2.9
CCOC(=O)c1sc2ncn(C(C)C(=O)OCC)c(=O)c2c1C (centres undefined) | / | -10 | 1.2 | 0.73 | -2 | 10 | / | / | / | /
O=C(CSc1ncccn1)NCCC1=CCCCC1 | -0.5 | -15 | -0.3 | 0.66 | -1 | 2.2 | / | 3 | 5 | -2.0
CCn1c(CC(=O)Nc2cccc(OC)c2)nnc1SCC(=O)Nc1nccs1 | 3.3 | -1 | 0.1 | 0.69 | -1 | 2.2 | i | 9 | 12 | -7.7
COC(=O)c1cc(NC(=O)CSc2nncn2C)cc(C(=O)OC)c1 | / | -2 | -1.1 | 0.68 | -3 | -0.6 | / | / | / | /
CCCN1CCN(CC(=O)Nc2nncs2)CC1 | -16 | 0 | 0.1 | 0.72 | -2 | -1.4 | i | 0 | 4 | -3.2
O=C(COc1ccccc1)Nc1ccc(N2CCN(C(=O)c3cccs3)CC2)cc1 | 2.3 | / | 0.1 | 0.68 | 5 | 2.3 | i | / | / | /
CCC1CN(C(=O)N2CCC(C(=O)NCCc3ccccc3OC)CC2)c2ccccc2O1 (centres undefined) | -0.3 | 7 | 0.4 | 0.68 | 4 | -0.7 | i | 12 | 6 | 2.0
Cc1ccc(CNC(=O)CCNS(=O)(=O)c2ccc(C)cc2)cc1 | / | -18 | 0.1 | 0.71 | 0 | 4.2 | / | / | / | /
CCNC(=S)N/N=C/c1c(Cl)cccc1Cl | 1.5 | -10 | -0.1 | / | -5 | / | i | 1 | 4 | -2.7
CC(C)c1ccc(NC(=O)CCC(=O)NCc2ccco2)cc1 | 2.2 | -25 | 1.7 | 0.66 | / | 2.9 | i | 26 | 13 | 6.2
CC(Oc1cccc(Cl)c1)C(=O)N1CCN(c2ncccn2)CC1 (centres undefined) | -0.2 | / | -1.2 | 0.69 | -5 | 0.4 | i | / | / | /
O=C(NCCCn1ccnc1)c1ccc(COc2ccccc2)o1 | 1.8 | -8 | 0.3 | 0.64 | / | 5.0 | i | 7 | -2 | 0.8
COc1ccc(Cn2c(O)c(C=Nc3ccc(C)cc3)c3ccccc3c2=O)cc1 | 5.3 | 28 | -0.2 | 0.69 | 7 | 2.7 | i | 11 | 22 | -1.1
O=C(COCc1cc(-c2ccc3c(c2)OCO3)on1)N1CCN(c2cccc(Cl)c2)CC1 | 1.9 | -17 | -1.6 | 0.7 | -7 | -0.1 | i | 6 | 6 | 0.8
CCOCCCNC(=O)C(Cc1ccccc1)NS(=O)(=O)c1cccc2nsnc12 (centres undefined) | 0.3 | -6 | 0.2 | 0.67 | -3 | 2.7 | i | 0 | -6 | -4.4
COc1ccc(C)cc1S(=O)(=O)n1cnc(C)c1 | 5.1 | 4 | 0.7 | 0.65 | / | 3.2 | i | 7 | 9 | 1.2
CCCCCOc1ccc(NC(=O)C(=O)NCC2CCCN2CC)cc1 (centres undefined) | 0.3 | 35 | 0.4 | 0.69 | -4 | 3.1 | / | 5 | 0 | -2.2
O=C(Cn1cnc2c(nnn2Cc2ccc(F)cc2)c1=O)N1CCCCC1 | / | / | -0.1 | 0.64 | 0 | 0.9 | / | / | / | /
CCCn1nc(C(=O)NNC(=O)c2cccc(C)c2)c2ccccc2c1=O | -1.6 | / | 2.4 | 0.67 | 4 | -2.7 | i | -7 | -8 | 1.9
Cc1ccc(OCC(=O)Nc2ccc([N+](=O)[O-])cc2)cc1 | / | -4 | 0.2 | 0.7 | -5 | 0.3 | / | / | / | /
CCC1CCCCN1CCCNC(=O)CSc1nc2nc(C)c(Cc3ccccc3)c(C)n2n1 (centres undefined) | -2.4 | 21 | 0.1 | 0.68 | -5 | 1.3 | i | -5 | -17 | -0.9
O=C(CCCn1c(=S)[nH]c2cc3c(cc2c1=O)OCO3)N1CCN(c2ccccc2F)CC1 | / | 7 | 0.3 | 0.71 | 6 | -2.8 | / | / | / | /
CCC(CC)C(=O)NCCN1CCN(C(=O)C(CC)CC)CC1 | / | 4 | 1.0 | 0.66 | 2 | 1.3 | / | / | / | /
COc1cc(SC)ccc1C(=O)NCCc1ccccc1 | / | -12 | -1.8 | 0.64 | -6 | 6.7 | / | / | / | /
O=C(CSCc1c(F)cccc1Cl)NCCSCc1ccco1 | 0.0 | -8 | 0.0 | 0.7 | 1 | 1.9 | / | -25 | -26 | -2.5
COc1ccc(Cl)cc1N(CC(=O)N1CCCCCC1)S(C)(=O)=O | 2.6 | -1 | 0.1 | 0.65 | -2 | 4.7 | i | -1 | 7 | 5.0
Cc1onc(-c2ccccc2)c1C(=O)n1cccn1 | / | -3 | -1.1 | 0.75 | -6 | 0.4 | / | / | / | /
CCN(CC)S(=O)(=O)c1cccc(NN=c2c(=O)c3ccccc3c2=O)c1 | 2.3 | -17 | -0.3 | 0.72 | 0 | 5.4 | i | 8 | -1 | -12
CC(C)COC(=O)Nc1nnc(SCCOc2ccccc2)s1 | / | -7 | 0.4 | 0.74 | -5 | 4.6 | / | / | / | /
CC12CCC(=O)N1C(C(=O)N1CCN(S(=O)(=O)c3cccc(Cl)c3)CC1)CS2 (centres undefined) | 1.1 | 1 | -0.6 | 0.66 | 0 | 1.2 | i | 8 | 18 | -0.8
Cc1c(NC(=O)Nc2ccccc2)cccc1[N+](=O)[O-] | 0.3 | -10 | -0.1 | 0.58 | 0 | 3.0 | i | 3 | 21 | 4.0
CSc1nsc(NC(=O)Nc2ccccc2)n1 | / | 9 | -2.8 | 0.44* | 19 | 6.0 | i | -31 | -41 | -7.1
CCc1c(C)nc2ncnn2c1N1CCCC(C(=O)Nc2ccc(NC(C)=O)cc2)C1 (centres undefined) | / | -6 | 0.3 | 0.76 | -5 | -0.6 | / | / | / | /
CCOC(=O)c1c(N)sc2c1CCN(CCc1ccccc1)C2 | 3.9 | 44 | -0.1 | 0.65 | -3 | -5.7 | / | 11 | 10 | 12
CC(C)N=C(Nc1ccccc1)c1cccnc1 | / | -23 | -0.1 | 0.74 | -4 | 2.7 | / | / | / | /
COc1ccccc1/C=C(/C(=O)OCC(=O)Nc1ccccc1C(C)C)c1ccccc1 | 2.6 | -1 | 1.0 | 0.75 | 2 | 0.9 | i | 0 | -10 | -3.1
c1ccc(-c2nnc(N3CCOCC3)c3ccccc23)cc1 | -1.1 | -2 | -0.4 | 0.67 | -2 | -1.1 | i | -4 | -15 | -3.3
Cc1ccc(CCNC(=O)C2CCC(=O)N2Cc2cccnc2)cc1 (centres undefined) | / | / | ? | 0.7 | -4 | 0.8 | / | / | / | /
COc1ccc(/C(O)=C2/C(=O)C(=O)N(CCCN(C)C)C2c2ccccc2)cc1OC (centres undefined) | / | 0 | 0.1 | 0.7 | 0 | 8.5 | / | / | / | /
CCc1cccc(NC(=O)c2ccc3c(=O)n4c(nc3c2)CCCCC4)c1 | -56 | -5 | -1.6 | 0.71 | -3 | 2.0 | i | -19* | -5.0* | 2.6*
COc1cc(NC(=O)Cn2cnc3c(nc4n3CCCCC4)c2=O)cc(OC)c1OC | -27 | -16 | 0.6 | 0.68 | -2 | 4.0 | i | 5 | 16 | 1.3
O=C(/C=C/c1ccco1)N1CCN(c2ccc(F)cc2)CC1 | 2.7 | -5 | -0.4 | 0.66 | 0 | 6.3 | i | / | / | /
Cc1ccc(F)cc1NC(=O)CCC(=O)c1cccs1 | / | 4 | 0.0 | 0.7 | 0 | 0.1 | / | / | / | /
Going on with the list.
SMILES | AF4-AF9 inh | T cruzi repl | Bfl-1 A1 inh | Ecoli growth | Beta cell apopt | UCH37 DUB inh | FGF22 binding | rRNA inh HTS | rRNA inh HTS OD600 | rRNA inh HTS RFP
Cc1cc(NC(=O)CSc2nnc(NCc3ccco3)s2)no1 | 2.7 | / | -0.1 | 0.71 | -5 | 1.1 | i | 10 | 15 | 0.2
Cc1cccc(C(=O)N(Cc2nc3ccccc3c(=O)[nH]2)C2CCCCC2)c1 | -11 | -6 | 2.4 | 0.65 | 0 | 1.8 | i | -18 | -29 | -2.9
COc1ccc(Cl)cc1NC(=O)NCc1ccccn1 | -4.7 | -9 | 0.9 | 0.69 | 4 | 1.3 | i | 5 | 18 | 4.7
O=C(CN1C(=O)NC2(CCCCC2)C1=O)NCCCSc1ccccc1 | -4.3 | / | 0.1 | 0.69 | -8 | 0.9 | i | -1 | -10 | -0.9
CCc1cc(C)cc(OCCNC(=O)c2ncn[nH]2)c1 | 1.9 | -11 | 1.1 | 0.67 | 4 | -2.2 | i | 7 | -3 | 4.4
N#Cc1cc2ccccc2nc1SCC(=O)Nc1ccc(S(=O)(=O)N2CCCC2)cc1 | / | 56* | 0.0 | 0.7 | 27 | 1.1 | / | / | / | /
CCOC(=O)C1(Cc2cccc(F)c2)CCN(Cc2cnn(CC)c2C)CC1 | 1.3 | -1 | 0.1 | 0.72 | -4 | 0.7 | i | 5 | 2 | -4.9
CCOC(=O)c1ccc(NC(=O)CCSCCc2ccccn2)cc1 | 1.8 | -16 | 0.8 | 0.7 | 0 | 2.5 | i | 13 | 11 | 0.6
O=[N+]([O-])c1cccc(N2Cc3ccccc3C2)c1 | 1.1 | -7 | -3.3 | 0.7 | 1 | 5.2 | i | 14 | 14 | 1.8
Cc1ccc(C(=O)n2cnnc2N)cc1 | / | -13 | 0.5 | 0.66 | / | 5.1 | / | / | / | /
Cc1cccc(C)c1NC(=O)CN(C)C(=O)c1ccccc1Cc1ccccc1 | 2.5 | -6 | -0.1 | 0.71 | / | 0.0 | i | -7 | -15 | -1.2

An excerpt; count on the stated rates, not on these rows.
